# ALR H2O2 inh: human ALR oxidase inhibition via reduced H2O2. purified ALR, DTT oxidation, H2O2 HRP-luminol luminescence. 290,000 compounds, 3.8% hits. inhibition, % (test concentration not listed). P55789;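 active = mean and each replicate at 75% or more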;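 note: stock transfer was 7.5 nL into about 7.5 µL; 0% = neutral wells and 100% = wells with inactivated enzyme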
# Target sequence (P55789 whole entry, looked up): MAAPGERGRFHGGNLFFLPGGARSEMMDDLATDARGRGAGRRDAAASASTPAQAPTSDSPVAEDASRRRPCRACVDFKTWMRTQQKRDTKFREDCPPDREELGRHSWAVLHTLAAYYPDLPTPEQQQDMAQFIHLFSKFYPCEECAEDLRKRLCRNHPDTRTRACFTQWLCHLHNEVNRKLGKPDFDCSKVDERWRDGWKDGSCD
# LANA-H2A inh: blocks KSHV LANA binding to histone H2A/H2B; cell-free LANA-H2A/H2B peptide, fluorescence polarization; inhibition, % (test concentration not listed); 320,000 compounds, 0.6% hits; AID 2629; in the data active = inhibition mostly above about 10%, no sharp cut-off; inactive = mostly below about 6.7%;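 note: stock transfer was 7.5 nL into about 10 µL; 0% = median of vehicle wells and 100% = median of positive control wells; one replicate is shown; the record names a cut of 25% in any replicate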
# Beta2AR agonist: activates human beta-2 adrenergic receptor causing internalization | Am2.2-beta2AR cells, FAP receptor internalization, flow cytometry; reference of the scale not given here | 340,000 compounds, 0.43% hits | P07550 | response, % (test concentration not listed);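 active = response above a set limit, near 3 SD of response in nonfluorescent compounds, cut at about 42% in these data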;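 note: stock transfer was 100 nL into about 11 µL; a reference agonist was the positive control; negative values mostly stem from fluorescent compounds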
# Target sequence (P07550 whole entry, looked up): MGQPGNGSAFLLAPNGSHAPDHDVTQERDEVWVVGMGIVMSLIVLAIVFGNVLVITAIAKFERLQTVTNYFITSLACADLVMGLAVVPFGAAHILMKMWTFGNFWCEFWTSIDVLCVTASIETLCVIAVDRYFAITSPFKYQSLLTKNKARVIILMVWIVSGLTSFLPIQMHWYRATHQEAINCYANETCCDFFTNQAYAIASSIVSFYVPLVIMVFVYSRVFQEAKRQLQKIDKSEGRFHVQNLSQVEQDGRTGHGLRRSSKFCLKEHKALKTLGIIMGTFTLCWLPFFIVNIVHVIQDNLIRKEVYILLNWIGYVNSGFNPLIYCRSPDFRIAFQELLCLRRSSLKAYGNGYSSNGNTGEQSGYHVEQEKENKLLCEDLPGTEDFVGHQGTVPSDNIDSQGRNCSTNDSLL
# UCH37 inh: blocks the human deubiquitinase UCH37. Q9Y5K5. purified proteasome/UCH37, Ub-AMC cleavage fluorescence. inhibition, % (concentration not given with the values). 330,000 compounds, 0.33% hits. AID 588478;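 active = mean of two replicates above 20%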;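 note: 0% = compound-free wells with enzyme and 100% = wells lacking proteasome; stock transfer was 100 nL into about 20 µL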
#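 Material: Human UCH37 enzyme supplied as purified proteasome complex | Schedule: 30 min compound-proteasome preincubation then 25 min substrate reaction, room temperature | Detection: AMC fluorescence from Ub-AMC cleavage, excitation 355 nm, emission 460 nm | Benchmarks: Wells without proteasome as full block, compound-free enzyme plus substrate as uninhibited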
# FGF22 binding: binders of recombinant human FGF22 by thermal shift. SYPRO orange fluorescence; percent of sucrose octasulfate shift, DMSO zero. Q9HCT0. AID 651658. 340,000 compounds, 1.5% hits. calls only at 9.99 µM;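 active = melting point raised past a set limit in the mean and every replicate; three in four hits are not shown here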
# Target sequence (Q9HCT0 whole entry, looked up): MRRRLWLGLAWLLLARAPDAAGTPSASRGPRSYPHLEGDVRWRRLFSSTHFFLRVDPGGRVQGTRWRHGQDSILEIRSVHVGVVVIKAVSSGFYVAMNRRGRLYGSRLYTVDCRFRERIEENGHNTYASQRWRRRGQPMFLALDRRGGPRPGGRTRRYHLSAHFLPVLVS
# HNF4A DNA FP: change in binding of human HNF4 alpha to DNA | activity change, % at 10 µM | P41235 | HNF4a-FITC DNA binding, fluorescence polarization, 1 h | 360,000 compounds, 0.3% hits; in the data active = activity change above about 30%, passing the limit was not always enough;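 note: controls were the assay level and a saturating level of protein; the project sought stronger binding though the title names inhibitors; some compounds called inactive have numbers as strong as hits; positive values seem to mean higher polarization but the record does not say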
# Ecoli growth: E. coli growth inhibition | Escherichia coli growth, OD600, 23 h; stronger effect = lower value | OD600 absorbance (concentration not given with the values) | 330,000 compounds, 0.21% hits | AID 1053175;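 active = OD600 absorbance below the run mean of sample wells minus 3.6 SD, in any replicate, cut at about 0.56 in these data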;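 note: stock transfer was 300 nL into about 60 µL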
# Active calls of the source: *; i = inactive; . = not tested or not shown; + = active, no number; ! = repeats disagree. Some of the compounds tested; count on the stated rates, not on these rows.
No.	SMILES	HNF4A DNA FP	UCH37 inh	Ecoli growth	ALR H2O2 inh	Beta2AR agonist	LANA-H2A inh	FGF22 binding
1	O=C(NC(=S)Nc1cccc([N+](=O)[O-])c1)C1CCCCC1	0.2	-1.3	0.73	9	-6	-5.0	i
2	CN(C(=S)NC(=O)/C=C/c1ccc(F)cc1)C1CCCCC1	-6.1	3.4	0.72	-1	-8	5.1	i
3	Cc1cc(C(=O)N/N=C/c2ccc(C)s2)n[nH]1	-1.3	.	.	.	4	4.9	i
4	O=C(C[C@H]1C/C=C\CC[C@@H](Cc2ccc(F)cc2)C(=O)O[C@@H](c2ccccc2)CNC1=O)N[C@H](CO)Cc1ccccc1	-0.1	-0.1	.	2	3	-5.6	i
5	Cc1ccc(-c2nc(NCc3ccco3)c3ccccc3n2)cc1	2.1	2.6	0.67	-3	-5	0.1	i
6	O=C(Nc1nccs1)c1cc(N2CCOCC2)nc2ccccc12	-0.6	-1.9	0.68	6	-8	0.4	.
7	Cc1c(NC(=O)c2ccc(NS(=O)(=O)c3ccccc3)cc2)c(=O)n(-c2ccccc2)n1C	0.9	-0.6	0.64	-6	-2	8.5	i
8	CC1(C)CC(=O)C=C(c2cccc(CO)c2)C1	1.6	-0.4	0.68	-2	-8	-4.5	i
9	CCC(C(=O)OCC(=O)Nc1ccc(Cl)c(S(=O)(=O)N(C)C)c1)c1ccccc1 (stereo unspecified)	8.7	5.7	0.72	-13	8	3.0	i
10	Cc1cc(N)c2ccccc2n1	0.2	1.4	0.64	-1	5	-0.4	i
11	c1ccc(-c2noc(-c3ccc4c(c3)OCO4)n2)nc1	-0.5	0.4	0.66	-1	-19	-8.2	.
12	O=C(Nc1ccccc1)C1CCCCC1	5.6	2.8	0.68	7	-3	4.0	.
13	Cc1ccc(NC(=O)c2cc(NC(=O)C3CC=CCC3C(=O)O)ccc2N2CCOCC2)cc1 (stereo unspecified)	-1.8	-6.2	0.71	12	3	-0.3	.
14	Oc1ccccc1C1=Nc2ccccc2N=C(c2ccco2)C1	0.9	-2.0	0.77	1	-3	-1.7	.
15	Cc1cc(N)n(-c2ccc([N+](=O)[O-])cc2)n1	1.8	4.1	0.67	2	8	2.7	i
16	CC1CC(C)CN(C(=O)c2cc(-c3ccccn3)nc3ccccc23)C1 (stereo unspecified)	0.3	0.8	0.7	-10	1	-0.8	.
17	COC(=O)c1sc(-c2ccc(Cl)cc2)cc1N	-0.8	-6.3	0.69	-12	1	-0.3	.
18	Cc1ccccc1CN1CCN(Cc2ccc3cccc(F)c3n2)CC1CCO (stereo unspecified)	0.1	-0.6	0.71	.	4	-3.9	i
19	CN(Cc1cccs1)C(=O)COc1ccc(-c2nnco2)cc1	3.2	2.1	0.71	.	15	1.9	.
20	CCCCCCCCS(=O)c1sc2nc(C)cc(C)c2c1N (stereo unspecified)	0.0	-8.9	0.7	8	-6	1.5	.
21	COCC1CCCN(C(=O)c2cc(COc3ccc4ncccc4c3)on2)C1 (stereo unspecified)	0.7	-1.9	0.69	-7	0	-5.0	i
22	CN(Cc1cccs1)C(=O)CCCc1c[nH]c2ccccc12	3.5	3.8	0.63	68	3	-2.3	i
23	CN(C)C(=O)CSc1nc2ccccc2c(=O)[nH]1	1.5	2.9	0.7	-5	-6	-6.1	.
24	COc1cc(-c2n[nH]c(=S)n2-c2ccc(C)cc2)cc(OC)c1OC	2.8	-0.7	0.7	66	15	0.6	.
25	CC1=C(C(=O)Nc2ccc(Cl)cc2C(=O)N2CCC(C(N)=O)CC2)SCCO1	-0.8	-1.9	0.68	-9	-6	0.8	i

# Shown with values under each structure: 19 of the compounds above.
# The line under a structure holds: HNF4A DNA FP, UCH37 inh, Ecoli growth, ALR H2O2 inh, Beta2AR agonist, LANA-H2A inh, FGF22 binding
[1] O=C(NC(=S)Nc1cccc([N+](=O)[O-])c1)C1CCCCC1
 : 0.2, -1.3, 0.73, 9, -6, -5.0, i
[2] CN(C(=S)NC(=O)/C=C/c1ccc(F)cc1)C1CCCCC1
 : -6.1, 3.4, 0.72, -1, -8, 5.1, i
[3] Cc1cc(C(=O)N/N=C/c2ccc(C)s2)n[nH]1
 : -1.3, ., ., ., 4, 4.9, i
[4] O=C(C[C@H]1C/C=C\CC[C@@H](Cc2ccc(F)cc2)C(=O)O[C@@H](c2ccccc2)CNC1=O)N[C@H](CO)Cc1ccccc1
 : -0.1, -0.1, ., 2, 3, -5.6, i
[5] Cc1ccc(-c2nc(NCc3ccco3)c3ccccc3n2)cc1
 : 2.1, 2.6, 0.67, -3, -5, 0.1, i
[6] O=C(Nc1nccs1)c1cc(N2CCOCC2)nc2ccccc12
 : -0.6, -1.9, 0.68, 6, -8, 0.4, .
[7] Cc1c(NC(=O)c2ccc(NS(=O)(=O)c3ccccc3)cc2)c(=O)n(-c2ccccc2)n1C
 : 0.9, -0.6, 0.64, -6, -2, 8.5, i
[8] CC1(C)CC(=O)C=C(c2cccc(CO)c2)C1
 : 1.6, -0.4, 0.68, -2, -8, -4.5, i
[9] CCC(C(=O)OCC(=O)Nc1ccc(Cl)c(S(=O)(=O)N(C)C)c1)c1ccccc1 (stereo unspecified)
 : 8.7, 5.7, 0.72, -13, 8, 3.0, i
[10] Cc1cc(N)c2ccccc2n1
 : 0.2, 1.4, 0.64, -1, 5, -0.4, i
[11] c1ccc(-c2noc(-c3ccc4c(c3)OCO4)n2)nc1
 : -0.5, 0.4, 0.66, -1, -19, -8.2, .
[12] O=C(Nc1ccccc1)C1CCCCC1
 : 5.6, 2.8, 0.68, 7, -3, 4.0, .
[13] Cc1ccc(NC(=O)c2cc(NC(=O)C3CC=CCC3C(=O)O)ccc2N2CCOCC2)cc1 (stereo unspecified)
 : -1.8, -6.2, 0.71, 12, 3, -0.3, .
[14] Oc1ccccc1C1=Nc2ccccc2N=C(c2ccco2)C1
 : 0.9, -2.0, 0.77, 1, -3, -1.7, .
[15] Cc1cc(N)n(-c2ccc([N+](=O)[O-])cc2)n1
 : 1.8, 4.1, 0.67, 2, 8, 2.7, i
[16] CC1CC(C)CN(C(=O)c2cc(-c3ccccn3)nc3ccccc23)C1 (stereo unspecified)
 : 0.3, 0.8, 0.7, -10, 1, -0.8, .
[17] COC(=O)c1sc(-c2ccc(Cl)cc2)cc1N
 : -0.8, -6.3, 0.69, -12, 1, -0.3, .
[18] Cc1ccccc1CN1CCN(Cc2ccc3cccc(F)c3n2)CC1CCO (stereo unspecified)
 : 0.1, -0.6, 0.71, ., 4, -3.9, i
[19] CN(Cc1cccs1)C(=O)COc1ccc(-c2nnco2)cc1
 : 3.2, 2.1, 0.71, ., 15, 1.9, .

# Next records.
No.	SMILES	HNF4A DNA FP	UCH37 inh	Ecoli growth	ALR H2O2 inh	Beta2AR agonist	LANA-H2A inh	FGF22 binding
26	CC(Cc1cccs1)NC(=O)c1cccs1 (stereo unspecified)	3.5	1.7	0.71	-13	0	-0.9	i
27	Cn1c(SCC(=O)NC2CCCC2)nc2c(c1=O)SCC2	0.6	4.2	0.67	0	5	-3.7	i
28	O=C(Nc1ccc(N2CCOCC2)nc1)c1ccc(Cl)cc1	-1.6	6.8	0.68	-1	-12	1.8	.
29	O=C(C[C@H]1C[C@H](C(=O)N2CCCCC2)[C@@]2(CCc3ccccc3)c3[nH]c4ccc(Cl)cc4c3CCN2C1=O)NCCC1=CCCCC1	3.0	0.9	0.73	.	5	.	i
30	O=C1CS(=O)(=O)N(Cc2ccc(F)cc2)c2ccccc21	0.8	2.3	0.71	.	-4	.	i
31	CNC(=O)CSc1ncnc2c1cnn2-c1ccccc1	-3.3	1.5	0.7	-3	2	0.1	i
32	COc1cc(C(=O)N2CCCCCCC2)ccc1OC1CCN(C(C)=O)CC1	-5.3	-0.9	0.68	-4	-2	3.3	i
33	Cc1ccc2c(C)nc(N/C(N)=N/S(=O)(=O)c3ccc([N+](=O)[O-])cc3)nc2c1	-0.2	3.8	0.7	-8	-3	-5.1	i
34	CC(C)Sc1nc(N2CCCC2)c2c(c1C#N)CC(C)(C)OC2	-1.5	-0.4	0.73	-2	7	-1.2	.
35	COc1cccc(OC)c1C(=O)N1CCNCC1	0.8	-0.3	0.68	-9	6	3.2	i
36	CCOc1ccc2nc(N3C(=O)CNC3=S)sc2c1	-0.8	16	0.64	-6	3	-0.4	i
37	Oc1ccc(NCc2ccccc2OCc2ccccc2)cc1	-2.4	-0.4	0.7	9	-12	1.5	i
38	CCCCCN(C(=O)CCC(=O)OCC(=O)N1CCCCC1C)c1c(N)n(CCCC)c(=O)[nH]c1=O (stereo unspecified)	-1.0	-2.3	0.72	-2	-4	3.8	i
39	Cc1cccc(-c2nnc(SCC(=O)NCc3ccc4c(c3)OCO4)n2C)c1	1.9	3.2	0.7	-6	-5	3.5	.
40	CSc1ccc(C(=O)N2CCC(CCC(=O)NC3CC3)CC2)cc1	1.4	-0.3	0.66	10	3	-6.8	i
41	CCCNC(=O)CN(c1ccc(F)cc1)S(=O)(=O)c1ccc2c(c1)OCCO2	2.3	0.0	0.65	-9	-4	2.6	i
42	CCOc1cccc(=O)c2c(C)n(C)c(C)c12	-12	8.8	0.6	1	1	7.2	.
43	Cc1cc(C(=O)COC(=O)C23CC4CC(CC(O)(C4)C2)C3)c(C)n1-c1c(C)n(C)n(-c2ccccc2)c1=O	-0.9	1.4	0.72	-17	9	2.4	i
44	Cc1ccc(C)c(NC(=O)COC(=O)CC2CC3CCC2C3)c1 (stereo unspecified)	1.6	-0.1	0.69	1	-2	1.8	i
45	O=C(N/N=C\c1cc2c(cc1[N+](=O)[O-])OCO2)c1cccs1	0.2	.	.	-15	-18	-1.7	i
46	COc1cc(N2C(=O)c3ccccc3C2=O)c(Cl)cc1C(=O)OCC(=O)NCc1ccco1	-5.6	5.0	0.77	1	-4	-1.0	.
47	COc1ccccc1N1CCN(C2CCCN(C(=O)CC(F)(F)F)C2)CC1 (stereo unspecified)	-2.1	1.0	0.71	27	-27	-3.3	i
48	C#CCNC(=O)C1=C[C@@H](c2ccccc2)C[C@@H](OCCCCO)O1	1.5	1.8	.	-18	-10	-0.1	+!
49	Cc1nc2ccccc2c(=O)n1NC(=O)c1ccc(F)cc1Cl	0.9	0.9	0.72	-1	2	-1.2	.
50	O=C(CN1CCN(C(=O)c2cccc(S(=O)(=O)N3CCCC3)c2)CC1)Nc1ccc(F)cc1	-2.8	1.7	0.68	8	1	2.8	i
51	NS(=O)(=O)c1ccc(NC(=O)COC(=O)CCc2ccccc2)cc1	1.4	4.8	0.68	-6	-6	0.9	i
52	COC(=O)c1ccc(CSc2nnc3nc(C)cc(C)n23)cc1	-2.3	2.9	0.69	-2	3	-2.3	i
53	Cc1ccc2c(c1)c1nnc(SCC(=O)N3CCN(c4ccc(F)cc4)CC3)nc1n2CC(=O)O	-0.7	11	0.68	12	-4	1.0	.
54	O=C(Cc1cccc(NC(=O)C2CCCN(C(=O)C3CCC3)C2)c1)Nc1ccc(C(=O)N2CCOCC2)cc1 (stereo unspecified)	2.1	-0.4	0.69	.	-6	.	i

# In another format: results already given.
# The line under a structure holds: HNF4A DNA FP	UCH37 inh	Ecoli growth	ALR H2O2 inh	Beta2AR agonist	LANA-H2A inh	FGF22 binding
51	NS(=O)(=O)c1ccc(NC(=O)COC(=O)CCc2ccccc2)cc1
→ 1.4	4.8	0.68	-6	-6	0.9	i
52	COC(=O)c1ccc(CSc2nnc3nc(C)cc(C)n23)cc1
→ -2.3	2.9	0.69	-2	3	-2.3	i
